# Screens as filed in PubChem BioAssay.
# VDR inh – inhibitors of human vitamin D receptor | P11473 | VDR-SRC2-3 peptide fluorescence polarization, 2 h | Potency, µM, inactives show max response, negative = inhibition, usual class: inhibitors | hit rate 0.93% among 400,000 | AID 504847; active means well fitted inhibition curve with a large enough effect; inconclusive means small, poorly fitted or top-dose-only effect, or another doubt; inactive means no such curve, though single readings can be large or run the other way; further: series mostly up to about 120 µM
# Target sequence (P11473 whole entry, looked up): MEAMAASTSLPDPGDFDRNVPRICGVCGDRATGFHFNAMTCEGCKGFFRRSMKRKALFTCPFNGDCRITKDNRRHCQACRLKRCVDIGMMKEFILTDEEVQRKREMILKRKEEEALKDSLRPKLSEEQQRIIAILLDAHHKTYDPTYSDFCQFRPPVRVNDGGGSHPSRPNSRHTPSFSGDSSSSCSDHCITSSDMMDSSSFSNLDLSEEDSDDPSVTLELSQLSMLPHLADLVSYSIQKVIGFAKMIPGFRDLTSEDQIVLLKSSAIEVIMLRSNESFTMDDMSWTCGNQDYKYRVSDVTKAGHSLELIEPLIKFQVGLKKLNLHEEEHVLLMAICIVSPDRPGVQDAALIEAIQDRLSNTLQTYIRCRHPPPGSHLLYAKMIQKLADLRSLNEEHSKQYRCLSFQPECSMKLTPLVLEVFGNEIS
#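 The screen uses fluorescence polarization to detect compounds that interfere with recruitment of the SRC2-3 coactivator peptide to VDR; plates are read after 2 h at room temperature.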
# Numbers without * were called inactive; u = inconclusive; & = joins results of further samples. On the % scale 0 is the no-effect control and ±100 the full control effect; potency means the concentration at half of the fitted maximal effect. A portion of the library (hit frequency here may not be typical).
compound	VDR inh
O=[N+]([O-])c1cccc(COc2ccc(CN3CCOCC3)cc2)c1	-6.8%
CC(C)(C)c1cc(Br)ccc1OCC(=O)Nc1ncn[nH]1	-2.7%
CC(=O)N1CCC(N(C(=O)Nc2ccc(F)cc2)C2CCCC2)CC1	-16.9%
CC(Oc1ccc(F)cc1Br)c1nc2ccccc2c(=O)[nH]1 (stereo not given)	15.6%
COc1ccc(Nc2ncc3c(n2)CC(c2ccc(OC)cc2)CC3=O)cc1 (stereo not given)	-5.3%
CCn1c(CNC(=O)Cc2ccc(OC)cc2)nnc1SCC(=O)c1ccc(Br)cc1	-7.0%
NC(=O)CCN1CCC(c2nc3ccccc3s2)CC1	-4.7%
O=C(Nc1nc(N2C(=O)c3ccccc3C2=O)n(-c2ccccc2)n1)c1ccc(F)cc1	5.2%
Cc1cc(C)cc(-n2c(-c3ccccc3)c(C)n3c4c(=O)n(C)c(=O)n(C)c4nc23)c1	3.9%
COc1cc(NC(=O)c2ccc(CNc3c(N4CCCC4)c(=O)c3=O)cc2)cc(OC)c1OC	4.9%
Cc1ccc(C(=O)NC(C)CCc2ccccc2)cc1[N+](=O)[O-] (stereo not given)	7.5%
CC(C)C[C@@]12C(=O)N(c3ccc(Br)cc3)C(=O)N1[C@H](c1ccc(Br)cc1)[C@@H]1C(=O)N(C(C)(C)C)C(=O)[C@@H]12	9.8%
CC1CCN(CC(=O)Nc2cccc(C(=O)Nc3cccc(C(F)(F)F)c3)c2)CC1	8.1%
CC(NC(=O)COc1ccccc1Cl)c1ccccc1 (stereo not given)	-2.4%
CC(=O)c1ccc(Nc2cc(C)nc3ccc(C)cc23)cc1	10.7%
O=C(NCc1ccccc1)/C(=C/c1cccc([N+](=O)[O-])c1)NC(=O)c1ccco1	-12.0%
CCCc1cnc2c(c1SCc1cccc(F)c1)c(=O)n(C)c(=O)n2C	6.4%
C#CCn1cc[n+](CC(=O)N(C)C)c1	1.1%
Cc1oc2ncnc(N3CCCCC3)c2c1C(=O)NCC1CCN(Cc2ccc(F)cc2)CC1	19.0%
COc1ccc(CCNC(=S)N2CCC(Cc3ccccc3)CC2)cc1OC	-8.2%
COc1ccc(NC(=S)NCc2ccc(Cl)cc2)c(OC)c1	-18.7%
CC1CCCCC1N(C)C1CCN(C(=O)CNC(=O)/C=C/c2cccc(Cl)c2)CC1 (stereo not given)	10.2%
Cc1ccc(C(=O)NC(=S)N(C)C2CCCCC2)cc1	2.0%
CCS(=O)(=O)c1ccc2oc(SCC(=O)Nc3ccc(OC)cc3)nc2c1	-8.8%
CCN(CC)CCCOC(=O)C(c1ccccc1)c1ccccc1	0.6%
CCN(CC)S(=O)(=O)c1ccc(NC2c3ccccc3C(=O)N2Cc2ccco2)cc1 (stereo not given)	-29.8%
O=C(CC1CCCCC1)Nc1ccccc1-c1ccccc1	-3.1%
COc1ccc(-c2nc(-c3cccs3)c(-c3cccs3)[nH]2)cc1O	-17.7%
Cc1cc(Cl)ccc1OCC(=O)Nc1ccc2oc(=O)ccc2c1	u
CN(C)CCCN(C(=O)/C=C/c1cccs1)c1nc2ccc(F)cc2s1	2.6%
CCOC(=O)c1cc(-c2ccc(/C=N\n3cnnc3)o2)ccc1Cl	22.5%
Cc1ccc2c(c1)N(CC(=O)OCC(=O)NCc1ccccc1)C(=O)CO2	-25.3%
Nc1cc(=O)nc(SCC(=O)Nc2ccc(F)cc2)n1CCc1ccccc1	17.7%
Cc1cc(NCc2ccc3c(c2)OCO3)n2nc(C)nc2n1	-28.8%
CCOc1cc(CN2CCN(CCOCCO)CC2)ccc1OC	-0.5%
CCOC(=O)c1c(C)[nH]c(C)c1C(=O)COC(=O)CSc1ccc(C)cc1	25.0%
Cc1nn2c(NCCN3CCOCC3)c3c(nc2c1-c1ccccc1)CCCC3	0.8%
CCCCn1c(N)c(N(CC)C(=O)c2cccs2)c(=O)[nH]c1=O	9.7%
CCCOc1ccc(C(=O)Nn2c(C)nc3ccccc3c2=O)cc1	-11.9%
Cc1ccc(CCNC(=O)c2c[nH]c3ccc(S(=O)(=O)Nc4cccc(C(F)(F)F)c4)cc3c2=O)cc1	15.7%
CC(C)CC(NC(=O)C1CCCN1C(=O)CNC(=O)OCc1ccccc1)C(=O)O (stereo not given)	2.9%
COc1cc(NC(=O)C(C)Oc2ccccc2)c(OC)cc1NC(=O)c1ccccc1 (stereo not given)	-7.1%
CC(=O)OC1CCC2(C)C(=CCC3C4CC(=O)N(O)C(=O)C4(C)CCC32)C1 (stereo not given)	15.5%
COc1ccc2[nH]c(C)c(CCN3C(=O)OC(C)(C)C3(C)O)c2c1 (stereo not given)	7.1%
CCN(CC)C(=O)c1ccccc1NC(=O)CN1C(=O)c2ccccc2S1(=O)=O	6.4%
COc1ccc(N2C(=O)C3CCCN3C2c2cccc(Br)c2)cc1 (stereo not given)	-11.0%
O=C(CCSCc1cccc(Cl)c1)NCCc1ccccc1	-3.4%
CC(=O)Nc1ccc(NC(=O)C(C)OC(=O)CCC2CCCCC2)cc1 (stereo not given)	-21.4%
CCOC(=O)CC(=O)Nc1ccc(C)cc1	-11.1%
O=C(Nc1cccc(Cl)c1)c1c(NC(=O)C(F)(F)F)sc2c1CCCC2	u
COc1ccc(C#Cc2c(-c3ccc(OC)cc3)oc3ccc(-c4ccc5c(c4)OCO5)cc23)cc1	-19.8%
COc1c(C(=O)Nc2nnc(C3CC3)s2)csc1Cl	u
CC(NC(=O)C(C)N1CCN(Cc2ccccc2)CC1)c1ccccc1 (stereo not given)	-3.1%
O=C(NCCS(=O)(=O)NCc1ccccc1Cl)c1ccccc1	-13.2%
COC(=O)c1ccc(N2CCN(C)CC2)c(NC(=O)COc2ccccc2)c1	5.8%
c1c2c(cc3sc(N4CCOCC4)nc13)OCO2	u

# Remaining list, next part
compound	VDR inh
COc1ccc(C(=O)COC(=O)CCNS(=O)(=O)c2ccccc2)cc1Br	7.4%
CC(C)(C)NC(=O)CSc1ccc(S(=O)(=O)N2CCOCC2)cn1	10.3%
CCOc1ccc(C(=O)N2CCCCCC2)cc1	4.3%
Cc1ccc(S(=O)(=O)N/N=C/c2ccc3nccnc3c2)cc1	11.9%
COc1cc(OC)cc(-c2nnc(SCC(=O)N3CCCC3)o2)c1	-15.1%
CN(C(=O)COC(=O)c1ccc(Cl)cc1N)C1CCS(=O)(=O)C1 (stereo not given)	-5.0%
CC(C)(C)OC(=O)N1CCC(c2c(C(=O)N3CCc4ccccc4C3)cnn2-c2ccc(F)cc2)CC1	-1.3%
COc1ccc(/C=N/NC(=O)c2ccncc2)cc1CN1CCCc2ccccc21	10.2%
NC(=O)c1ccsc1NC(=O)COC(=O)C1CCCN1C(=O)c1cccs1 (stereo not given)	-2.1%
CCc1nnc(NC(=O)CSCc2cc(=O)n3ccsc3n2)s1	9.1%
CCCN(CC(=O)Nc1ccccc1C)C(=O)c1ccc(OCc2c(C)noc2C)cc1	-6.5%
Cc1cc([N+](=O)[O-])nn1Cc1noc(C(=O)NCCCn2ccnc2)n1	0.8%
COc1cn(CC(=O)Nc2cc(C)ccc2C)c(CN2CCCCC2)cc1=O	17.5%
CC(Oc1ccc(Cl)cc1Cl)C(=O)NC1CCSC1=O (stereo not given)	7.9%
CC1(C)C2CCC1(C)C(NC1=NCCC1)C2 (stereo not given)	-13.3%
CC1CCCN(c2nc3c(-c4ccc(Cl)cc4)nnn3c3ccccc23)C1 (stereo not given)	9.6%

# 2 records picked at random from those above:
compound	VDR inh
CCCN(CC(=O)Nc1ccccc1C)C(=O)c1ccc(OCc2c(C)noc2C)cc1	-6.5%
NC(=O)c1ccsc1NC(=O)COC(=O)C1CCCN1C(=O)c1cccs1 (stereo not given)	-2.1%

# Continuation:
compound	VDR inh
NC(=O)C1(N2CCCCC2)CCN(C(=S)Nc2ccccc2)CC1	-9.2%
O=C(c1cccc(S(=O)(=O)N2CCOCC2)c1)N1CCN(S(=O)(=O)c2cccc([N+](=O)[O-])c2)CC1	-6.3%
c1ccc(Cn2c(CNc3nc4ccccc4n3CCN3CCOCC3)nc3ccccc32)cc1	-12.1%
COc1ccc(Cn2c(C)cc3c(c2=O)C(c2cccs2)C(C#N)=C(N)O3)cc1OC (stereo not given)	8.9%
Cc1cc(Nc2ccc([N+](=O)[O-])cc2)c2ccccc2n1	19.6%
Cc1ccc(C)n1N1C(=O)/C(=C\c2ccc(Cl)cc2)SC1=S	-10.2%
CCc1sc(N2C(=O)C3C4CCC(C4=C(C)C)C3C2=O)nc1-c1ccccc1 (stereo not given)	-10.2%
COc1ccc(-n2ncc3c(NCCCN4CCOCC4)ncnc32)cc1	-13.1%
CC(C)OCCCNC(=O)c1cc2c(s1)CS(=O)(=O)C2	-1.0%
Cc1cc(C)c2nc(N3CCN(C(=O)c4ccco4)CC3)sc2c1	-10.4%
COc1ccc(N=Nc2c(C)[nH]c3ccccc23)cc1	-19.3%
CCNC(=O)c1nn(-c2ccccc2C)nc1CO	9.6%
CC(C)Cn1c(-c2cccc(Br)c2)nc2ccccc21	-5.7%
CC1CCN(C(=O)c2[nH]cnc2C(=O)N2CCN(C(=O)OC(C)(C)C)CC2)CC1	-18.0%
Cc1sc(N)nc1-c1cccs1	27.2%
CCc1nnc(NC(=O)c2cc(S(=O)(=O)N3CCOCC3)ccc2N2CCCCC2)s1	8.1%
CCN(CC)c1ccc(NC(=O)COC(=O)COc2ccccc2[N+](=O)[O-])cc1	-9.8%
CCOC(=O)C(=O)NC1CC=CCC1c1ccc2c(c1)OCO2 (stereo not given)	-14.9%
COCCCNC(=O)/C(C#N)=C/c1c(N2CCN(c3ccc(OC)cc3)CC2)nc2c(C)cccn2c1=O	-17.5%
O=C(OCc1cc([N+](=O)[O-])cc2c1OCOC2)c1ccccn1	-5.9%
CC1CCCN(C(=O)C2CCN(S(=O)(=O)c3ccc4c(c3)CC(C)N4C(=O)C3CC3)CC2)C1 (stereo not given)	23.9%
CCCCCN(C(=O)CCC(=O)OCC(=O)N1CCC(C)CC1)c1c(N)n(CCCC)c(=O)[nH]c1=O	-29.7%
COc1nc(Nc2ccc(C(C)C)cc2)nc(OC)n1	3.2%
COc1ccc(CNc2ncc(-c3ccc(F)cc3)n2C)cc1OC	-10.9%
CCn1c(COc2cccc(OC)c2)nnc1SCC(=O)Nc1ccccc1C(=O)OC	5.0%
Cc1ccccc1C(=O)N1N=C(c2cccc(NS(C)(=O)=O)c2)CC1c1cccs1 (stereo not given)	1.8%
CCOc1ccc(NC(=O)Cn2cc(C(=O)c3ccc(C)c(C)c3)c(=O)c3cc4c(cc32)OCCO4)cc1	8.4%
O=C(c1cccs1)N1CCCC(c2nc3c(nnn3Cc3ccccc3Cl)c(=O)[nH]2)C1 (stereo not given)	-6.7%
Cc1ccc(C(=O)c2c(NC(=O)c3cccnc3)sc3c2CCCC3)cc1	-5.2%
Cc1ccc2nc(C)/c(=N\O)c(C)nc2c1	8.8%
CCCn1c(=N)c(C(=O)NCC2CCCO2)cc2c(=O)n3cccc(C)c3nc21 (stereo not given)	-8.7%
C/C=C1\C(OC2OC(CO)C(O)C(O)C2O)OC=C(C(=O)OC)C1CC(=O)OCC1C(C)C(OC(=O)CC2C(C(=O)OC)=COC(OC3OC(CO)C(O)C(O)C3O)/C2=C\C)CC1C(CO)CO (stereo not given)	-5.7%
Cc1cccc(-n2ncc3c(NCc4ccccn4)ncnc32)c1	-0.4%
CCC(CC)C(=O)c1c[nH]c(C(=O)N2CCN(c3ccccc3F)CC2)c1	2.9%
CCOc1cccc2sc(=NC(=O)c3ccc(S(=O)(=O)N4CCOCC4)cc3)n(C)c12	7.4%&-11.8%
COc1ccc(-c2cccc(NS(=O)(=O)c3cc(C)ccc3OC)c2)nn1	13.5%
CN(C)CCC(=O)N1C/C(=C/c2ccccc2)C(=O)/C(=C\c2ccccc2)C1	u
O=C(CC12CC3CC(CC(C3)C1)C2)NC(=S)N1CCCCC1	-9.1%
CCN1CCN(CCCNC(=O)CCCn2nc(C)c3sc4ccccc4c3c2=O)CC1	-19.4%
CC(=O)Nc1ccc(N2N=C(C)C(N=Nc3ccccc3)C2=O)cc1 (stereo not given)	-12.0%

# Part of the list above, with the structure last.
VDR inh | Structure
-9.1% | O=C(CC12CC3CC(CC(C3)C1)C2)NC(=S)N1CCCCC1
-19.4% | CCN1CCN(CCCNC(=O)CCCn2nc(C)c3sc4ccccc4c3c2=O)CC1
-12.0% | CC(=O)Nc1ccc(N2N=C(C)C(N=Nc3ccccc3)C2=O)cc1 (stereo not given)

# Continuation:
compound	VDR inh
O=C(c1ccccc1)c1nccc2ccccc12	-21.1%
O=C(Nc1ccc(N2CCOCC2)cc1)C1CCCN(S(=O)(=O)c2cccc(C(F)(F)F)c2)C1 (stereo not given)	0.5%
COc1cccc(/C=N/Nc2ncnc(N)c2[N+](=O)[O-])c1OC	-29.0%
CCOc1ccccc1N1CCN(Cc2cnc(-c3ccccc3)[nH]2)CC1	-9.7%
O=C(NCC1CCCO1)c1ccc(N2CCCCC2)nc1 (stereo not given)	-20.0%
O=S(=O)(Nc1ccccn1)c1ccc(-n2cccn2)cc1	0.9%
COc1cccc(CNC(=O)c2c(C)nn(-c3ccc(F)cc3)c2-n2cccc2)c1	5.1%
O=C(OCC(=O)N1CCN(c2ccccc2)CC1)c1ccc(Cl)cc1[N+](=O)[O-]	-9.6%
N#Cc1c(C(F)(F)F)cc(-c2ccc(Cl)cc2)nc1SCC(=O)O	-2.2%
Cc1cccc(-c2noc(CN(C)S(=O)(=O)c3cc(Cl)ccc3Cl)n2)c1	-0.9%
O=C(COc1ccc2c(-c3ccccc3)cc(=O)oc2c1)N[C@H](Cc1c[nH]c2ccccc12)C(=O)O	-7.6%
